RecA intein inh – Mtb RecA intein splicing inhibitors, primary screen, biochemical, fluorescence, HTS | Protein RecA (Mycobacterium tuberculosis (strain ATCC 25618 / H37Rv)), P9WHJ3 | cell-free RecA intein splicing | inhibition, %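 (about 9 µM by stock and volumes)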 | hit rate 0.75% among 290,000 | AID 2221, 2009; in the data active = inhibition above about 30%;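 also: 0% = vehicle wells and 100% = reference inhibitor control wells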
Target sequence (P9WHJ3 whole entry, looked up): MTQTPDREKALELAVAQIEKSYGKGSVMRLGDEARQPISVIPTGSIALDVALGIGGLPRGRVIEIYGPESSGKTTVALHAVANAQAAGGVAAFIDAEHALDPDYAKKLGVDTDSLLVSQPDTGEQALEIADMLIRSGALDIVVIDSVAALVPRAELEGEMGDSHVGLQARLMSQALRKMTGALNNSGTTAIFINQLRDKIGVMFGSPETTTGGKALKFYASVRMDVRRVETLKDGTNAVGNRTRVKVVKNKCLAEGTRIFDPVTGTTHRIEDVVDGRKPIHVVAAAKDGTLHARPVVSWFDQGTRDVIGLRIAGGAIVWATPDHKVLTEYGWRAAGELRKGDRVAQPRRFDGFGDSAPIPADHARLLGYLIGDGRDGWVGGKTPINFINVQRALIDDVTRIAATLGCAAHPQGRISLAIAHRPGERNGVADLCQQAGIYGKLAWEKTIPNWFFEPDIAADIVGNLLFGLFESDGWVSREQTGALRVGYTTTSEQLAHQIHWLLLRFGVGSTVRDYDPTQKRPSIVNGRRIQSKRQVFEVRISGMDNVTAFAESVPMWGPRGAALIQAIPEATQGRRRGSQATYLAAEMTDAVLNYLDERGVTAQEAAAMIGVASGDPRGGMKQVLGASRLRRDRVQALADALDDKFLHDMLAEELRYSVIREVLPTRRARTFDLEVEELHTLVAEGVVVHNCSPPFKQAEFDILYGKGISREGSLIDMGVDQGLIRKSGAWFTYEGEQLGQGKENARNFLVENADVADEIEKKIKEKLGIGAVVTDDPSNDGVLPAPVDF
Mtb bLac sens – beta-lactam sensitization of Mtb H37Rv, H37Rv; hit rate 0.27% among 330,000; M. tuberculosis H37Rv growth with meropenem, percent inhibition; hits of this screen are not shown here; inhibition, % at 25 µM;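 active = about 74% or more and at least 40 points above the plate without the antibiotic, then above 30% in a dose series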;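 also: growth measured after seven days incubation then overnight dye step; 0% = bacteria only wells and 100% = bacteria with antibiotic; twin plates without the antibiotic show which effects depend on it; some results filed as inactive read as strong as hits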
Mtb growth – M. tuberculosis H37Rv growth inhibitors, H37Rv strain (AID 1626); hit rate 0.95% among 220,000; M. tuberculosis H37Rv growth inhibition; higher % means a stronger effect; inhibition, % at 10 µM; hits with a dose series show IC50 in µM;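 active = confirmed in a dose series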;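 also: bacteria incubated seven days before Alamar blue readout; 0% = bacteria only wells and 100% = bacteria with antibiotic wells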
Arbovirus anti – antivirals against arbovirus infection, primary screen, cell-based, full library, 10K replicate subset; arbovirus infection cell-based antiviral screen; inhibition, % at 10 µM; hit rate 0.37% among 200,000;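 active = inhibition from about 30%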;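 also: bluetongue infection of BSR cells; cell survival read as ATP light after 72 h; 0% = infected wells without compound and 100% = uninfected wells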
YopH PTP inh – YopH tyrosine phosphatase inhibitors, primary screen, biochemical, fluorescence Ex485/Em525. inhibition, %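 (about 10 µM by stock and volumes)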. hit rate 0.16% among 140,000. YopH tyrosine phosphatase [Yersinia enterocolitica];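 active = inhibition of 50% or more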;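 also: controls were vehicle for no effect and minimum signal wells for full effect; inactives centre near -20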
Arbovirus anti repeat – second read-out of Arbovirus anti, no call of its own (marks repeat the call); inhibition, %; measured here: 10K subset replicate screen; many hits read low in the repeat;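 first of two repeat runs on a subset; 0% = infected and 100% = uninfected wells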
Starred values were filed as active, the others as inactive; . = not tested or not shown; & = joins results of further samples.

SMILES | RecA intein inh | Mtb bLac sens | Mtb growth | Arbovirus anti | YopH PTP inh | others
O=C(O)C1CCCCC1C(=O)Nc1cccc(C(=O)N2CCCCC2)c1 (stereo unspecified) | 1.9 | 1 | -18% | 6 | -19
COc1ccc(NC(=O)c2cc(-c3cccs3)on2)cc1OC | -0.5 | -5 | 2% | 1 | -35
Cc1ccc(C(=O)Nc2c[nH]c(=O)[nH]c2=O)cc1 | -1.4 | 2 | . | . | .
O=C(O)c1cc(O)c2c(c1)[C@H]([C@H]1c3cc(C(=O)O)cc(O)c3C(=O)c3c(O[C@@H]4O[C@H](CO)[C@@H](O)[C@H](O)[C@H]4O)cccc31)c1cccc(OC3O[C@H](CO)[C@@H](O)[C@H](O)[C@H]3O)c1C2=O (stereo partly specified) | -2.9 | 4 | . | . | .
Cc1ccc(C(=O)C(C)OC(=O)c2cc(=O)[nH]c3ccccc23)cc1 (stereo unspecified) | 1.3 | -12 | . | . | .
Cc1cccc(OCC(=O)Oc2ccc(Cl)cc2)c1 | 34* | -6 | . | . | .
c1ccc2c(-n3cnnn3)cccc2c1 | 0.0 | -5 | -3% | 3 | -22
Cc1ncc(CO)c(CNc2ccc(-c3nc4ccccc4[nH]3)cc2)c1O | -3.7 | -5 | . | . | .
O=C1CC2c3ccccc3C1C1C(=O)N(Cc3ccccc3)C(=O)C21 (stereo unspecified) | . | -4 | -1% | 8 | .
COc1ccc(CC(=O)NCc2nnc(SCCOc3ccccc3)n2C)cc1 | 1.7 | -4 | 6% | 2 | -5
COC(=O)N/N=C(\C)c1ccc(-n2ccnc2)cc1 | -0.5 | -6 | -8% | 5 | .
CCn1c(COc2ccc3c(c2)OCO3)nnc1SCC(=O)c1ccccc1 | -0.4 | -10 | -13% | -5 | -7
S=c1[nH]nc(C2CCCCC2)n1/N=C/C=C/c1ccccc1 | 3.2 | 2 | . | 8 | -37
Cc1ccc(S(=O)(=O)N(Cc2ccccc2)c2ccccn2)cc1[N+](=O)[O-] | 3.0 | -10 | . | . | .
C=CCNC(=O)c1cccn1-c1ccsc1C(=O)OC | 1.5 | -5 | -4% | 5 | 16
Cc1cccc(N(C(=O)CCC(=O)Nc2cc(C)on2)C(C(=O)NC2CCCC2)c2ccccc2)c1 (stereo unspecified) | -0.4 | 0 | . | . | .
COc1cc(OC)c(C(=O)Nc2ccc(C(=O)c3ccccc3)cc2)cc1OC | -1.7 | 2 | . | . | .
CC(C)OP(=O)(c1ccc(N(C)C)cc1)C(O)c1ccncc1 (stereo unspecified) | -0.2 | 5 | -4% | 7 | -34
CC(C)c1nc(C(=O)N2CCCC(CCC(=O)N(C)CCc3ccccn3)C2)cs1 (stereo unspecified) | 0.3 | 7 | 11% | 6 | .
CC(C)Cn1cnc2c1c(=O)n(CC(=O)NN)c(=O)n2Cc1ccccc1 | 3.2 | 1 | . | . | .
Cn1c(=O)c(C(=O)c2ccccc2)nc2ccccc21 | 12 | -10 | 5% | -2 | -2
COc1ccc(CCNC(=O)CCn2c(SCC(=O)N3CCCC3)nc3ccccc3c2=O)cc1OC | 3.6 | -6 | -4% | . | .
CN1CCN(CC(=O)Nc2ccccc2[N+](=O)[O-])CC1 | -0.7 | -8 | -6% | -1 | -22
Cc1cc(=O)[nH]c(SCC(=O)N2c3ccccc3CC2C)n1 (stereo unspecified) | -3.1 | -7 | 1% | 9 | -49
O=C1CCC(C(=O)NCCCn2ccnc2)N1 (stereo unspecified) | -3.6 | 5 | 3% | -1 | -30

Brought forward from above: 2 entries, followed by the next part.
SMILES | RecA intein inh | Mtb bLac sens | Mtb growth | Arbovirus anti | YopH PTP inh | others
Cc1cc(=O)[nH]c(SCC(=O)N2c3ccccc3CC2C)n1 (stereo unspecified) | -3.1 | -7 | 1% | 9 | -49
O=C1CCC(C(=O)NCCCn2ccnc2)N1 (stereo unspecified) | -3.6 | 5 | 3% | -1 | -30
CCOc1ccc(CCNC(=O)C2CCN(c3nn4c(=O)cc(C)nc4s3)CC2)cc1OCC | -0.9 | -4 | -6% | 2 | 2
CC1(c2ccccc2)CC(C)(C)N2C(=O)Cc3cccc1c32 (stereo unspecified) | 25 | 8 | 4% | 10 | .
CC(C)CNC(=O)COc1ccc(Sc2ccc(OCC(=O)NCC(C)C)cc2)cc1 | 0.9 | -5 | 4% | 10 | -23
CC12CCC(C(=O)O)(C/C1=N\O)C2(C)C (stereo unspecified) | -1.2&-4.0 | -4&-6 | -11%&1% | 0&10 | -3&17
CC1Oc2ccccc2N(CC(=O)NCCCN2CCOCC2)C1=O (stereo unspecified) | -3.4 | -4 | . | . | .
CCc1c(C)nc(SCC(=O)Nc2cccc(Br)c2)[nH]c1=O | . | 1 | -14% | 2 | -8
O=[N+]([O-])c1ccccc1NCc1ccccc1Cl | -0.4 | -2 | 5% | -19 | .
COc1cc(SC)ccc1C(=O)NCCOc1ccccc1Cl | 2.7 | -2 | -5% | 4 | -21
COc1ccc(S(=O)(=O)N2CCOC23CCN(S(=O)(=O)c2cc(F)ccc2F)CC3)cc1 | 6.2 | -4 | . | . | .
CCOc1ccccc1NC(=O)C(=O)CC(=O)c1ccc(OC)cc1 | 5.8 | 2 | . | . | .
O=[N+]([O-])c1ccc(-c2n(-c3ccccn3)c3ccccc3[n+]2-c2ccccn2)cc1 | 2.3 | -4 | 4% | . | .
COc1ccc(CCN=C(N)C(C)c2ccccc2)cc1OC (stereo unspecified) | -1.4 | -15 | -6% | . | .
C=CCOc1cccc(C2C(C(=O)c3ccc(C)o3)=C(O)C(=O)N2c2nnc(C)s2)c1 (stereo unspecified) | -2.3 | -9 | . | . | .
Cc1ccc(C(=O)COC(=O)c2cc(Cl)ccc2O)cc1[N+](=O)[O-] | -2.8 | 1 | . | . | .
Cc1cccc(C(=O)N2CCCC(CCC(=O)N3CCN(c4ccccn4)CC3)C2)c1 (stereo unspecified) | 0.2 | -10 | . | . | .
CNC(=O)COC(=O)c1ccccc1C(=O)c1ccc(Cl)c([N+](=O)[O-])c1 | 19 | . | 6% | -9 | .
CC(NC(=O)c1cccc(N2CCCC2=O)c1)c1ccc2c(c1)OCCO2 (stereo unspecified) | 0.8 | -12 | 0% | -5 | 19
Cc1cc(C)c(C#N)c(N2CCN(Cc3ccccc3)CC2)n1 | 5.8 | -2 | 4% | -8 | -13
O=C(COn1nnc2ccc(Cl)cc21)NCc1ccccc1 | 5.3 | -4 | 15% | -5 | -50
COc1cc2c(cc1OC)C(Cc1ccc(O)cc1)NCC2 (stereo unspecified) | 1.3 | -7 | -8% | -3 | -22
CCNc1nc(NC(C)CC)nc(Oc2ccc(=O)[nH]n2)n1 (stereo unspecified) | 0.5 | 3 | 2% | -6 | -2
O=C(CCNC(=O)N1CC(=O)Nc2ccccc21)Nc1ccc(Cl)cc1 | -1.6 | 2 | . | . | .
CCC(C)(C)n1nnnc1CN1CCN(C(c2ccccc2)c2ccccc2)CC1 | 18 | 5 | -10% | -15 | 3
C=CCNC(=S)NCc1ccc(CNC(=S)NCC=C)cc1 | 6.9 | -8 | -3% | -3 | .
Cc1ccc2occ(/C=N/NC(=O)c3ccccc3C)c(=O)c2c1 | 9.8 | -5 | . | . | .

(cont.)
SMILES | RecA intein inh | Mtb bLac sens | Mtb growth | Arbovirus anti | YopH PTP inh | others
O=C(O)c1ccc2c3c(cccc13)C(=O)N(c1ccccc1)C2=O | 5.7 | -2 | 3% | -3 | .
Cc1cc(OCC(=O)Nc2ccc(OCc3ccccc3)cc2)nc(C(C)C)n1 | 0.4 | -6 | -9% | 3 | -2
COc1ccc(CCNC(=O)C(=O)NCC2CCCN2S(=O)(=O)c2ccc(OC)cc2)cc1 (stereo unspecified) | 1.9 | -7 | . | . | .
CCOC(=O)C1(C)/C(=N/Nc2cccc(Cl)c2)C(=O)C(=O)N1c1ccccc1 (stereo unspecified) | 2.3 | 14 | 44% | 1 | -5
CNC(=O)N(O)C1N(C)C(=O)N(Cc2ccccc2)C1(C)C (stereo unspecified) | -5.6 | 4 | -6% | 2 | -31
O=P(c1ccccc1)(c1ccccc1)c1nc(-c2ccccc2)oc1N1CCOCC1 | 11 | 6 | -6% | . | .
COc1cccc(NC(=O)Cn2c3ccccc3c3nc4n(c(=O)c32)CCCS4)c1 | 0.9 | 4 | . | . | .
Cc1ccc(-c2nn(-c3ccccc3)cc2/C=C/C(=O)O)o1 | -12 | 66 | 9% | 6 | .
O=C(CCc1nnc2ccc(NCc3ccccc3)nn12)NCC1CCN(C2CCCC2)C1 (stereo unspecified) | -2.0 | -2 | . | . | .
NS(=O)(=O)c1cccc(NC(=O)CSc2nn(-c3ccccc3)c(=S)s2)c1 | -7.1 | 1 | -1% | 12 | -18
COc1cc(OC)cc(C(=O)Nc2ccc3c(c2)n(C)c(=O)n3C)c1 | 0.8 | -3 | . | . | .
NNC(=O)c1[nH]c(-c2ccccc2)cc1-c1ccccc1 | -1.1 | -5 | . | . | .
COc1cc(NC(=S)NCc2ccc(S(N)(=O)=O)cc2)c(OC)cc1Cl | -0.4 | -5 | 1% | 16 | -13
O=C(Nc1ccc(OC(F)F)cc1)c1cc(S(=O)(=O)N2CCOCC2)ccc1F | 1.5 | -13 | . | . | .
CCS(=O)(=O)n1nc(-c2ccc(Cl)cc2)nc1N | -0.8 | 2 | -2% | 4 | -21
Cn1c(=O)c2cc(S(=O)(=O)Nc3cccc(F)c3)ccc2n(C)c1=O | -0.4 | -3 | . | 3 | -21
O=C(Nc1c2c(nn1-c1ccccc1)CS(=O)(=O)C2)c1ccc2c(c1)OCO2 | -2.3 | -1 | . | . | .
Cn1cnnc1SCC(=O)NC1CCCC1 | -2.7 | 6 | . | . | .
O=C(NCc1ccco1)C1CCN(c2nnc(-n3cccc3)s2)CC1 | 2.5 | -1 | 0% | 0 | -3 | Arbovirus anti repeat=-2
COc1cc(/C=N/O)c(Br)cc1OCC(=O)Nc1ccccc1C | 5.4 | 7 | 4% | -2 | -22
CCOc1ccc(N/C(SCc2cccc([N+](=O)[O-])c2)=C(/C#N)C(N)=O)cc1 | 26 | -3 | 3% | -11 | .
CCOc1cc(/C=C2/NC(=O)NC2=O)cc(Br)c1OCc1ccc(C(=O)O)cc1 | 0.2 | 2 | 7% | 8 | .
S=C(NC1CCCCC1)N1CCN(c2ccccn2)CC1 | -0.5 | -6 | 0% | -3 | -15
COc1ccc(Nc2nc3ccccc3n3cnnc23)cc1 | 0.9 | -5 | 8% | -2 | -18
N#Cc1ccc(N2CCOCC2)nc1 | . | 3 | -13% | . | .

Remaining list, next part.
SMILES | RecA intein inh | Mtb bLac sens | Mtb growth | Arbovirus anti | YopH PTP inh | others
Cc1ccc(C2=C/C(=C/c3cccnc3)C(=O)O2)c(C)c1 | 2.8 | 21 | -8% | 7 | -32
CC1=C(C(=O)OCc2ccccc2)C(c2ccccc2Cl)NC(=O)N1CCCC(=O)O (stereo unspecified) | 0.6 | -2 | . | . | .
c1ccc2c(Nc3nc(-c4ccncc4)nc4ccccc34)cccc2c1 | 1.7 | 7 | -7% | . | .
CCCS(=O)(=O)N1CCCC(C(=O)Oc2ccc(Cl)cc2)C1 (stereo unspecified) | -1.0 | 6 | . | . | .
Cc1nc(C(F)(F)F)nc(Nc2ccc(Br)cc2)c1C#N | -0.3 | 1 | 9% | 12 | -21
CC1(C)NC(=O)N(CCOCCOc2ccc3ccccc3c2Br)C1=O | 1.3 | -2 | -3% | 29 | -4
COc1ccc(N2C(=O)c3ccccc3NC23CCC(C)CC3)cc1 (stereo unspecified) | . | -12 | -5% | -8 | -16
Oc1cc(Cl)ccc1Oc1ccc(Cl)cc1Cl | 21 | 37 | 10% | . | .
CCCC(=O)Nc1ccc2nc(SCC(=O)Nc3nccs3)sc2c1 | -1.6 | -4 | . | 0 | -15
CCSC1=C(C#N)C(c2ccc(F)cc2)CC(=O)N1 (stereo unspecified) | . | . | 2% | 4 | -13 | Arbovirus anti repeat=6

Reprinted at random: 7 records from the list
SMILES | RecA intein inh | Mtb bLac sens | Mtb growth | Arbovirus anti | YopH PTP inh | others
Oc1cc(Cl)ccc1Oc1ccc(Cl)cc1Cl | 21 | 37 | 10% | . | .
CC1=C(C(=O)OCc2ccccc2)C(c2ccccc2Cl)NC(=O)N1CCCC(=O)O (stereo unspecified) | 0.6 | -2 | . | . | .
CCSC1=C(C#N)C(c2ccc(F)cc2)CC(=O)N1 (stereo unspecified) | . | . | 2% | 4 | -13 | Arbovirus anti repeat=6
c1ccc2c(Nc3nc(-c4ccncc4)nc4ccccc34)cccc2c1 | 1.7 | 7 | -7% | . | .
COc1ccc(N2C(=O)c3ccccc3NC23CCC(C)CC3)cc1 (stereo unspecified) | . | -12 | -5% | -8 | -16
CCCS(=O)(=O)N1CCCC(C(=O)Oc2ccc(Cl)cc2)C1 (stereo unspecified) | -1.0 | 6 | . | . | .
Cc1nc(C(F)(F)F)nc(Nc2ccc(Br)cc2)c1C#N | -0.3 | 1 | 9% | 12 | -21

A portion of the library (hit frequency here may not be typical).
